VACV Venus inh = qHTS for Stage-Specific Inhibitors of Vaccinia Orthopoxvirus: Venus Reporter Primary qHTS. Vaccinia virus Venus reporter expression, fluorescence. Potency, µM (titrated, usually from 36.5 µM), for inactives: at the top dose activity change, negative = inhibition, most hits filed as inhibitors. hit rate 0.46% among 330,000; active means well fitted inhibition curve with a large enough effect; inconclusive means small, poorly fitted or top-dose-only effect; inactive means no such curve, though single readings can be large or run the other way; tested in A549 cells; note: nearly all actives have a fitted effect of over 30% in size; inactives centre near -10
VACV mCherry inh = qHTS for Stage-Specific Inhibitors of Vaccinia Orthopoxvirus: mCherry Reporter Primary qHTS; Vaccinia virus mCherry reporter infection, fluorescence; about a quarter of the inactives have no number; Potency, µM (titrated, usually from 36.5 µM), for inactives: top-dose activity change, negative = inhibition, most hits filed as inhibitors; hit rate 0.63% among 310,000; active = well fitted inhibition curve with a large enough effect; inconclusive = small, poorly fitted or top-dose-only effect; inactive = no such curve, though single readings can be large or run the other way; tested in A549 cells; note: nearly all actives have a fitted effect of over 35% in size; inactives centre near -10
* hit, by the source's call; i = inactive; ? = inconclusive; . = no result given; & = joins results of further samples; [ ] = another dose, or the depositor's remark. % is set by controls: 0 for no effect and ±100 for the full control effect; potency is the fitted concentration of half-maximal effect.

entry	smiles	VACV mCherry inh	VACV Venus inh
1	Cc1ccccc1C1(CC(=O)N2CC3CC4CC(C3)CC2C4)CC(=O)N(Cc2cccnc2)C1=O (configuration not stated)	-19%	-10%
2	O=C(Nc1cccc(-c2cn3c(n2)SCC3)c1)c1ccc2ccccc2n1	-14%	-6%
3	COc1ccc(CCNC(=O)CN(c2cccc([N+](=O)[O-])c2)S(C)(=O)=O)cc1	i	0%
4	CC(C)Oc1ccc(CSc2ncn[nH]2)cc1	-3%	-7%
5	O=c1[nH]c(CN2CCN(c3ccccc3Cl)CC2)nc2ccsc12	i	-12%
6	COc1ccc(/C=N/NC(=O)c2cc(-c3ccccc3OC)nc3ccccc23)cc1COC(C)=O	-13%	-6%
7	COc1ccc(CCC(=O)N2c3ccccc3N=C(c3ccc4c(c3)OCO4)C2C(=O)NCc2ccccc2)cc1 (configuration not stated)	i	-26%
8	CSCCCNC(=S)N1CCc2ccccc2C1	-24%	-1%
9	O=C(O)CC(=O)Nc1ccc(Oc2ccc(C(F)(F)F)cn2)c(Cl)c1	1%	-11%
10	Cn1nnc2ccccc2c1=O	i	-11%
11	Cc1ccc(CNC(=O)c2ccc(Cn3c(=O)c4ccccc4n(CC(=O)Nc4ccc(C)cc4C)c3=O)cc2)cc1	?	?
12	O=C(CBr)c1ccc(Oc2ccc(C(=O)C[n+]3cccc(Br)c3)cc2)cc1	50%[activator]	8%
13	CCCC(c1nnnn1C(C)(C)CC)N1CCN(C(=O)c2ccco2)CC1 (configuration not stated)	-11%	-11%
14	O=C(CSc1ncn[nH]1)Nc1cccc(S(=O)(=O)N2CCCCCC2)c1	-24%	-17%
15	COc1ccccc1C(C[N+](=O)[O-])c1c[nH]c2ccccc12 (configuration not stated)	?	?
16	Cc1ccnc(NC(=O)CCC(=O)N(CC(=O)NC(C)(C)C)C2CCCC2)c1	.	0%
17	CC(=O)c1cccc(NC(=O)c2cccc(N3C(=O)c4ccccc4C3=O)c2)c1	-12%	-14%
18	COc1ccc(N2CC(C(=O)Nc3nnc(SCC(=O)NCC4CCCO4)s3)CC2=O)cc1 (configuration not stated)	-8%	-3%
19	Cc1ccc(Cn2ccn(Cc3ccccc3C)c(=O)c2=O)cc1	-4%	3%
20	CNC(=S)N1CCN(S(=O)(=O)c2ccc3ccccc3c2)CC1	-29%	-11%
21	Cc1ccc(NC(=O)c2c(C)noc2-c2snnc2C)cc1	?	?
22	CCN1C(=O)CSc2ccc(C(=O)OC)cc21	-10%	-2%
23	O=C(NCC(=O)N1CCc2ccccc2C1)c1ccccc1Cl	-8%	-6%
24	CCN(CC)C(=O)c1ccc(N2C(=O)C3CC=C(Cl)CC3C2=O)cc1 (configuration not stated)	-6%	1%
25	Cc1cccc(OCC(=O)Nc2cc(C)on2)c1	.	19%
26	Cc1noc(C)c1CSCC(=O)Nc1cc(S(=O)(=O)N2CCOCC2)ccc1OC(C)C	-18%	-14%
27	COc1cc(/C=N/NC(=O)C(C)n2nnc3ccccc32)ccc1O (configuration not stated)	.	?
28	COc1ccccc1NC(=O)Nc1cccnc1	-15%	-15%
29	Cc1ccc(NC(=O)C2CCCN2S(=O)(=O)c2cccc3cccnc23)cc1C (configuration not stated)	-26%	-19%
30	O=C(O)C1=C[C@H](c2ccc(C(F)(F)F)cc2)C[C@H](OCCCCO)O1	i	-4%
31	COc1ccc(C2c3c(n(C)c4ccccc34)C(=O)N2CC(=O)Nc2ccc(F)cc2)cc1 (configuration not stated)	i	-8%
32	CC(C)CC(NC(N)=O)C(=O)OCC(=O)N(Cc1ccccc1)Cc1ccccc1 (configuration not stated)	5%	6%
33	Cc1c(N2C(=O)CSC2c2ccc([N+](=O)[O-])cc2)c(=O)n(-c2ccccc2)n1C (configuration not stated)	-12%	-3%
34	NC(=O)CC[C@@H]1NC(=O)[C@@H]2CCCN2C(=O)c2cc([N+](=O)[O-])cc(F)c2NCCC[C@@H](C(N)=O)NC1=O	i	-8%
35	CC(C)CC1Nc2ncnc(N3CCOCC3)c2N(Cc2ccc(Br)cc2)C1=O (configuration not stated)	-19%	-6%
36	CCn1c2ccccc2c2nnc(SCC(=O)Nc3ccccc3OC)nc21	-5%	-23%
37	Cn1c(=O)c2c(SCC(=O)NCC3CCCO3)nc(-c3ccccc3Cl)nc2n(C)c1=O (configuration not stated)	-20%	-10%
38	O=C(N/N=C/c1ccccc1O)C1CCCC1	?	-5%
39	Nc1cc(S(=O)(=O)Nc2ccc(Br)cc2)ccc1Cl	?	-19%
40	NC(=O)C1C2C=CC(C2)C1c1ccccc1 (configuration not stated)	i	3%
41	O=C(O)CCCNc1cc(N2CCN(C3CCCCC3)CC2)c2noc3c2c1C(=O)c1ccccc1-3	i	-11%
42	COc1ccc(CCNC(=O)C2CCN(S(C)(=O)=O)CC2)cc1	-12%	-2%
43	Cc1ccccc1NC(=O)c1cccc(S(=O)(=O)Oc2ccc([N+](=O)[O-])cc2)c1	-27%	-25%
44	CCOC(=O)c1c(N)n(CCN2CCCCC2)c2nc3ccccc3nc12	-5%	-25%
45	C/C(=N\NC(=S)NCc1ccccc1)c1cccs1	-9%	-16%
46	CSC1CCCCC1(O)CSc1nc2ccccc2o1 (configuration not stated)	-28%	-8%
47	Cc1ccc(C(=O)NCc2ccc3c(c2)OCO3)cc1C	i	-14%
48	CC(C)C(=O)N1CCc2cc(-c3csc(N)n3)ccc21	?	?
49	CCCN(C(=O)CSc1cc(-c2ccccc2)c2ccc(OC)cc2n1)C1CCS(=O)(=O)C1 (configuration not stated)	-13%	-13%
50	O=S(=O)(c1ccc(NCCc2c[nH]c3ccccc23)nc1)N1CCOCC1	-8%	?
51	O=C(Nc1ccc([N+](=O)[O-])cn1)c1cccnc1	i	-1%
52	CCOc1ccccc1C(=O)OCC(=O)NCCc1ccc(OC)cc1	-3%	-8%
53	Cc1ccc(C(C(=O)NC(C)(C)C)N(CCCN2CCOCC2)C(=O)c2ccc(-c3ccccc3)[nH]2)o1 (configuration not stated)	-2%	-1%
54	Cc1cc(S(=O)(=O)N2CCCCC2CCNC(=O)C(=O)NCc2cccnc2)ccc1F (configuration not stated)	-24%	-14%
55	CO/N=C\CC(=O)Nc1ccc(Cl)c(Cl)c1	-11%	-11%
56	CCOC(=O)c1c(/N=C/C2=C(O)CC(C)(C)CC2=O)sc(C(C)=O)c1C	-2%	-25%
57	COc1ccc2c(c1)-c1nc(NC(=O)c3cccc(Br)c3)sc1CC2	-8%	-12%
58	COCC(=O)Nc1cc(C(=O)N2CCOc3ccccc3C2)cc2nc(-c3cccnc3)n(C)c12	-3%	5%
59	CCCC(O)c1nc2ccccc2n1CCCCOc1ccc(OC)cc1 (configuration not stated)	2%	9%
60	CCOc1ccccc1OCCCCN1CCCC1	-12%	-4%

The results go on:
entry	smiles	VACV mCherry inh	VACV Venus inh
61	Cc1cc(NS(=O)(=O)c2ccc(NC(=O)/C=C/c3ccco3)cc2)nc(C)n1	-7%	-5%
62	COc1cc(NC(=O)c2cc(C)nc3ccccc23)cc(OC)c1OC	i	-14%
63	Cc1nc2ccc(NC(=O)NCCO)cc2s1	i	-7%
64	CC(=O)Nc1ccc(-c2ccnc3c2CC(C(=O)Nc2ccc(C(C)C)cc2)O3)cc1 (configuration not stated)	18%	3%
65	O=C(CS(=O)(=O)Cc1ccccc1)N1CCN(c2ccccc2F)CC1	-21%	-16%
66	CCC(=O)Nc1nnc(SCCOC)s1	-18%	-16%
67	COc1cc(NC(=O)CN2C(=O)c3ccccc3Sc3ccc(C(=O)N4CCOCC4)cc32)cc(OC)c1OC	-4%	-8%
68	CCC1CCC2(CC1)NC(=O)N(CC(=O)Nc1cc(C)on1)C2=O (configuration not stated)	12%	-9%
69	CCOc1ccccc1-c1cc(-c2n[nH]c(=S)n2CC)c2ccccc2n1	3%	-17%
70	COc1ccc(S(=O)(=O)NCc2ccncc2)cc1NC(=O)c1ccccc1C	-13%	-2%
71	CC(C)COC(=O)CCNc1n[nH]c(=O)[nH]c1=O	-11%	-9%
72	COc1ccccc1NC(=O)CSc1nncn1-c1cccnc1	-10%	-10%
73	CC(C)(C)c1nnc(NC(=O)CCS(=O)(=O)Cc2ccccc2)s1	?	?
74	CCCC(CCC)C(=O)OC1C[C@H]2CC[C@@H](C1)[N+]2(C)C (some centres not stated)	-13%	-5%
75	Cc1ccc(-c2noc(-c3ccccc3NC(=O)C3CC(=O)N(c4cccc(C)c4)C3)n2)cc1 (configuration not stated)	-16%	-14%
76	O=C(NC(Cc1c[nH]c2ccccc12)C(=O)O)c1ccc(Br)cc1 (configuration not stated)	-8%	-17%
77	CC1(C)CC2C1CC[C@]1(C)CCC3C(C(=O)O)CC(=O)O[C@]32C1 (some centres not stated)	-4%	3%
78	O=C1C(=O)N(Cc2ccco2)C(c2cccc(Cl)c2)/C1=C(\O)c1ccc2c(c1)OCCO2 (configuration not stated)	.	-5%
79	CCCCC(=O)Nc1cc2nn(-c3ccc(OC)cc3)nc2cc1C	-14%	-7%
80	O=C(NCCCN1CCOCC1)NC1CCCCC1	.	8%
81	COc1ccc(CCn2c(SCC(=O)Nc3cc(C)on3)nc3ccccc3c2=O)cc1OC	-14%	-11%
82	COc1ccc(CN2CCN(CCC(C)C)C(CCO)C2)cc1Cn1cncn1 (configuration not stated)	-7%	-17%
83	CC(C)c1nc(SCC(=O)N2CCCc3ccccc32)c2c(=O)n(C)c(=O)n(C)c2n1	?	?
84	CCc1ccccc1N(C)S(=O)(=O)c1ccc2[nH]cc(C(=O)O)c(=O)c2c1	-1%	3%
85	Cc1csc(NC(=O)CCCc2cccs2)n1	-11%	6%
86	CC1(C)NC(=O)C(CCc2ccccc2)NC1=O (configuration not stated)	23%	3%
87	CCOc1ccc(NC(=O)CSc2oc(-c3cccs3)nc2S(=O)(=O)c2ccc(C)cc2)cc1	-24%	-15%
88	COc1ccc(CNC(=O)CN(C)S(=O)(=O)c2ccc3c(c2)c(=O)n(C)c(=O)n3C)cc1	-11%	2%
89	Cc1nc2scc(C)n2c(=O)c1S(=O)(=O)N1CCN(c2ccccc2)CC1	-24%	-14%
90	COc1ccccc1CCc1nnc(CCC(=O)N(C)Cc2cccc3cnccc23)o1	-8%	-15%
91	COC(=O)C1=C(C)NC(=O)/C1=C\c1ccco1	-14%	-2%
92	Cc1ccc2cc(CCNC(=O)c3ccc(S(=O)(=O)N4CCCCC4)cc3)c(=O)[nH]c2c1	i	-8%
93	Cc1ccc2oc(=O)c3cc(C(=O)NCCc4ccc(Cl)cc4)sc3c2c1	3%	3%
94	CCN(CC)S(=O)(=O)c1cccc(NC(=O)C2CC(=O)N(c3ccc4c(c3)OCCO4)C2)c1 (configuration not stated)	-23%	-17%
95	COc1ccc(C(CNC(=O)c2oc3ccc(Cl)cc3c2C)N2CCCCC2)cc1 (configuration not stated)	-24%	-22%
96	COc1cccc(NC(=O)N(C)C[C@@H]2OCc3cnnn3CCCC(=O)N([C@H](C)CO)C[C@@H]2C)c1	i	-9%
97	CC(=O)c1ccc(NC(=O)CSc2nnc3ccc(-c4ccc(Cl)cc4)nn23)cc1	-4%	-13%
98	CC1=C(C(=O)N(C(C)C)C(C)C)CC(CC(=O)NCCCCc2ccccc2)C(=O)N1CCCN1CCCC1=O (configuration not stated)	23%	-8%
99	Cc1cc(=O)oc2cc(OC(=O)c3nn(C(C)C)c(=O)c4ccccc34)ccc12	-12%	-9%
100	CCOc1ccc(-n2c(SCC(=O)NC3CCCCC3)nc3c([nH]c4ccccc43)c2=O)cc1	-13%	-14%
101	COc1ccc(C(=O)Nc2cc3cc(Cl)ccc3oc2=O)cc1OC	i	-22%
102	CN(C(=O)CSc1nc2ccccc2c(=O)n1-c1ccc(F)cc1F)C1CCS(=O)(=O)C1 (configuration not stated)	i	-11%
103	CN1C(=O)C(C)(C)c2cc(S(=O)(=O)N3CCCC(C(=O)NCc4ccc(Cl)cc4)C3)ccc21 (configuration not stated)	?	?
104	Cc1nc2sccn2c(=O)c1S(=O)(=O)Nc1ccc(N2CCN(S(C)(=O)=O)CC2)cc1	-9%&-15%	-5%&-10%
105	O=C(O)Cc1cccc2c(=O)cc(-c3ccccc3)oc12	i	-5%
106	Cc1cccc(NC(=O)Cn2nnc(-c3ccc(CN4CCCC4)cc3)n2)c1C	-15%	-16%
107	COc1ccc(N2CCN(C(=O)CS(=O)(=O)c3cccc4nsnc34)CC2)cc1	-11%	-12%
108	CN1CCC(=NNC(=O)C(=O)Nc2ccccc2F)CC1	i	0%
